Bioassay records from PubChem BioAssay.
Rango complex inh: inhibitors of Rango-importin beta complex formation; 340,000 tested, 0.031% active; Potency, µM (highest dose often 92.2 µM), without a hit: top-dose inhibition of complex formation; Rango CFP/YFP FRET sensor + importin beta, 45 min; Q14974; active = rising FRET ratio curve, often small or poorly fitted; inconclusive = mostly compound fluorescence or quenching in the first reads; inactive = flat curves in all reads;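 also: potency is read from the fitted curve at half-maximal effect; 0% = DMSO wells and 100% = buffer wells lacking importin beta; nearly all actives have a fitted effect of over 15% in size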
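FRET biosensor (snurportin 1 IBB flanked by EYFP and cerulean), 50 nM, with compound 5 min, then 0.125 microM importin beta in PBS, 1 mM DTT, 0.02% Tween-20, 0.1% BSA. CFP/YFP ratio read after 45 min at room temperature; pre-read flags interference.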
Rango release inh: inhibitors of RanGTP-induced Rango-importin beta complex dissociation; O95149+P62826; Biochemical FRET Rango-importin beta, RanGTP-induced dissociation; Potency, µM (series often up to 46.1 µM), for the others: at the top dose activity change, negative = inhibition; 340,000 tested, 0.071% active; AID 540253; active means falling FRET ratio curve, often poorly fitted, with flat reads before Ran was added; inconclusive means other falling curves, or compound fluorescence or quenching; inactive means flat or rising ratio curve;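 also: potency is read from the fitted curve at half-maximal effect; % of control where 0% means no effect; nearly all actives have a fitted effect of over 45% in size; -100% = wells without RanGTP and RCC1; the record marks most hits as doubtful in a second field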
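Compounds preincubate 5 min with complex of recombinant Rango and importin beta in PBS with 1 mM DTT. Ran (0.6 uM) loaded with 2 mM GTP plus 0.2 uM RCC1 starts dissociation; FRET is recorded 45 min later.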
miR-21 reporter: miR-21 reporter, rising signal. HeLa miR-21 FLuc reporter, luciferase, 48 h. Potency, µM (top dose mostly 38.3 µM), for the others: at the top dose reporter change, positive = more light. 340,000 tested, under 10 active. AID 2288; active = well fitted rising curve with a large enough effect; inconclusive = small, poorly fitted or top-dose-only effect; inactive = no such curve, though single readings can be large or run the other way;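 also: % of control where 0% means no effect; miR-21 action dims this reporter so a rising signal means less miR-21 action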
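Compounds were titrated across several concentrations (up to approximately 40 uM) and incubated 48 hours with HeLa miR-21-FLuc reporter cells (miR-21 target sequence downstream of FLuc, endogenous miR-21). Readout was firefly luciferase luminescence after lytic detection reagent.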
GLA inh pH 4.5: blocks human alpha-galactosidase A at pH 4.5 | P06280 | purified enzyme, 4-MU-alpha-Gal fluorescence, pH 4.5 | 230,000 tested, under 10 active | activity change, negative = inhibition, % at 105 µM; inconclusive = small, poorly fitted or top-dose-only inhibition, or a rising curve; inactive = flat fitted curve, though single readings scatter; no compound was filed as active;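 also: 0% = full activity with enzyme and -100% = basal without enzyme; dose as in the result columns while the protocol names 77 µM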
Target sequence (P06280 whole entry, looked up): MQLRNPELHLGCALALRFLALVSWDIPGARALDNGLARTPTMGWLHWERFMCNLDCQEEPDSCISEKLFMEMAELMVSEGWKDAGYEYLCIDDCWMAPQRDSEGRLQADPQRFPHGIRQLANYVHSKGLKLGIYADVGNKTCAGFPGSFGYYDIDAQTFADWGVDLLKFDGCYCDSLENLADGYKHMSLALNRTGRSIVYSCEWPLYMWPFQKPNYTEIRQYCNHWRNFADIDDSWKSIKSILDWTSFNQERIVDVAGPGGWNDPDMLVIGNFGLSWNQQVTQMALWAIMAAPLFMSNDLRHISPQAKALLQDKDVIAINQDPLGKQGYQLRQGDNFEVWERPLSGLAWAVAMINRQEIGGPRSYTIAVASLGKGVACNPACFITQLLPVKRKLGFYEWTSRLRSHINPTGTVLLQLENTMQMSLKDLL
Active calls of the source: *; u = inconclusive; x = not tested or not shown; & = joins results of further samples. Not all compounds are listed; rates above refer to the full screens.

Every second line gives: Rango complex inh | Rango release inh | miR-21 reporter | GLA inh pH 4.5
COC(=O)C(CCC(C(=O)OC)N1C(=O)c2ccccc2C1=O)N1C(=O)c2ccccc2C1=O (stereo unspecified)
→ 0.3% | u | x | x
Cc1ccc(NC(=O)CNc2ccccc2N2CCCC2=O)cc1S(=O)(=O)N1CCOCC1
→ 2.2% | 4% | x | x
Nc1ncnc2c1ncn2[C@@H]1O[C@H](CNCc2cccn2-c2nccs2)[C@@H](O)[C@H]1O
→ -3.9% | 4% | x | x
O=C(CSC1=NS(=O)(=O)c2cc(Cl)ccc2N1)Nc1ccccc1C(F)(F)F
→ 0.5% | -12% | x | x
Cc1ccc(C)c(NCC(O)c2ccccc2)c1 (stereo unspecified)
→ -4.7% | 13% | -10% | 7
CCNC(=S)Nc1ccc(OC(F)(F)F)cc1
→ 1.2% | -1% | -9% | x
COc1ccc2oc(C(=O)OCC(=O)N3CCN(S(=O)(=O)c4ccc(C)cc4)CC3)c(C)c2c1
→ u | -9% | 0% | x
O=C(/C=C/c1ccccn1)c1cc(Br)ccc1O
→ 1.3% | -10% | -10% | 2
COCCCn1c(=O)c2sccc2n(Cc2ccccc2)c1=O
→ -1.3% | -10% | -6% | x
COc1cc(SC)ccc1C(=O)Nc1ncc(C)s1
→ 0.8% | 0% | u | 7
CC(=O)c1ccc(NC(=O)c2cnsn2)cc1
→ 4.8% | -8% | -11% | -3
COc1ccc(CCNC(=O)N2c3ccccc3Sc3ccccc32)cc1
→ 0.2% | 18% | x | x
CS(=O)(=O)c1ccc2nc(NC(=O)c3ccc(Cl)cc3)sc2c1
→ -0.4% | 1% | -5% | x
Cc1cccc(Cn2cnc3ccccc32)c1
→ 0.6% | 3% | -9% | -2
CC1(C)C(=O)CCC2(C)C1=CCC1C2C(=O)CC2(C)C1CCC2(O)C(=O)CO (stereo unspecified)
→ 2.3% | 25% | x | x
Cc1ccc(C)c(NC(=O)c2ccccc2NS(=O)(=O)c2cc([N+](=O)[O-])ccc2C)c1
→ 5.8% | 22% | u | -6
COc1ccccc1C1=NOC(Cn2c(=O)c3c(ncn3C)n(C)c2=O)C1 (stereo unspecified)
→ 0.8% | -3% | -30% | 11
Nc1[nH]c2cc([N+](=O)[O-])ccc2c1-c1ccccn1
→ 16% | -11% | 11% | x
O=C(Nc1ccccc1)/C(=C1\CCCN1)[N+](=O)[O-]
→ 4.0% | -18% | -23% | 6
COc1ccc(C)cc1NC(=S)Nc1ccccc1SC
→ 0.9% | 6% | -2% | 2

Next section
Every second line gives: Rango complex inh | Rango release inh | miR-21 reporter | GLA inh pH 4.5
Cc1ccc(C(=O)Nc2ncc([N+](=O)[O-])s2)cc1
→ u | -11% | u | x
O=C(/C=C/c1ccco1)Nc1ccc2nc3n(c(=O)c2c1)CCCC3
→ 3.6% | 18% | -35% | -1
Cc1cccc(C)c1NC(=O)CSc1cc(C(=O)c2nccn2C)c2ccccc2n1
→ -0.9% | -4% | 1% | -14
CCC1CCCCN1S(=O)(=O)c1ccc(NC(=O)C2CC(=O)N(C(C)(C)C)C2)cc1 (stereo unspecified)
→ -2.8% | 2% | x | x
O=C(Nc1nc2c(F)cc(F)cc2s1)c1ccc([N+](=O)[O-])o1
→ -3.2% | -12% | -15% | x
COc1ccc(C2CC(=O)N3CN(c4ccc(C)c(Cl)c4)CSC3=C2C#N)cc1 (stereo unspecified)
→ u | u | -5% | 4
Cc1cccc(NC(=O)c2ccc3c(c2)OCCO3)n1
→ -2.9% | 2% | -33% | x
NS(=O)(=O)c1ccc(NC(=O)CCc2ccccc2)cc1
→ -1.1% | -15% | -7% | 2
CCCCNc1ncnc2sc3c(c12)CCN(CCC)C3
→ -3.5% | u | -9% | x
CNC(=S)N(Cc1cc2cc(OC)c(OC)cc2[nH]c1=O)C1CCCC1
→ 0.9% | u | -6% | 3
COCCN(C(C)=O)c1nnc(-c2ccccn2)s1
→ -3.9% | 7% | -39% | -1
O=C1CC(C(=O)Nc2nccs2)C(c2ccccc2)O1 (stereo unspecified)
→ 12% | 3% | -6% | -16
CCCN1CCN(C(=O)c2ccc(-c3ccc([N+](=O)[O-])cc3)o2)CC1
→ -0.4% | 0% | x | x
CCN1CCN(CC(=O)Nc2ccc(Cl)c(S(=O)(=O)N(C)C)c2)CC1
→ 0.3% | -12% | -9% | 4
[O-][n+]1c2ccccc2c2n1CCN=C2c1ccc(Cl)cc1
→ 1.5% | -10% | x | x
Cc1[nH]c2ccccc2c(=O)c1SC(F)(F)C(F)C(F)(F)F (stereo unspecified)
→ -1.7% | -4% | -10% | -7
CCN1C(=O)C(CC(=O)Nc2ccc(F)cc2)N(Cc2ccc3c(c2)OCO3)C1=S (stereo unspecified)
→ 4.2% | 4% | 18% | 3
CCC(C)(C)NC(=O)COc1ccc(OCc2ccccc2)cc1
→ -5.0% | -3% | 1% | -1
CC12CCCCC1=CC(=O)CC2 (stereo unspecified)
→ u | -17% | x | x
COc1cc(NC(=O)c2cc3ccccc3cc2OC)ccc1NC(=O)c1cccs1
→ u | 10% | 5% | x

Continued.
Every second line gives: Rango complex inh | Rango release inh | miR-21 reporter | GLA inh pH 4.5
O=Cc1cc(OCc2ccccc2)ccc1[B-](F)(F)F
→ -1.1% | 3% | x | x
Cc1cc(C(=O)N2CCN(c3ccc(C(F)(F)F)cn3)CC2)c(C)o1
→ 1.1% | -4% | 7% | -14
COc1ccc(Nc2nc(N)nc(CN3CCOCC3)n2)cc1
→ 0.4% | 20% | -13% | 4
O=C(CCN1C(=O)C2C3CC(C(Br)C3Br)C2C1=O)OCC(=O)c1ccccc1 (stereo unspecified)
→ -2.4% | 3% | 1% | 4
N#CC1=C(S)N(c2ccccc2)C(c2ccc(-c3cc(Cl)ccc3Cl)o2)NC1=O (stereo unspecified)
→ -3.6% | -12% | -1% | 0
O=C(CN1CCN(S(=O)(=O)c2ccc(Cl)s2)CC1)N1CCOCC1
→ 1.9% | -16% | -3% | 12
Cc1nnc(SCCC(=O)Nc2nc(-c3ccccc3)ns2)s1
→ -2.9% | 5% | -5% | 9
Cc1ccccc1Nc1nc(N)nc(COC(=O)[C@@H](NC(=O)c2ccco2)C(C)C)n1
→ -0.5% | 21% | x | x
COc1ccc2c(c1)c(=O)oc1cc(OCC(=O)NC3CC3)ccc12
→ u | 0% | -8% | 3
Cc1cc(O)c(C(C)C)cc1NC(=O)Nc1cccc2ccccc12
→ 3.8% | 4% | 23% | -5
CCn1c(SCc2nc3sc(C(=O)O)c(C)c3c(=O)[nH]2)nc2ccccc21
→ u | u | -8% | 6
Cc1cc(OCC(=O)NC(C)c2ccccc2)ccc1[N+](=O)[O-] (stereo unspecified)
→ 2.8% | -8% | -1% | -6
CCc1cccc(-n2c(SCC(=O)c3c(N)n(C4CC4)c(=O)[nH]c3=O)nnc2N2CCOCC2)c1
→ -0.2% | -4% | x | x
COc1cccc2c1OC1(C)CC2NC(=O)N1c1cccc(C(=O)N2CCN(c3ccccc3)CC2)c1 (stereo unspecified)
→ -3.5% | -1% | 8% | -5
COc1ccc(CC(=O)c2ccc(O)cc2O)cc1
→ 1.7% | 3% | -50% | 3&7
COc1ccccc1N1CCN(C(=O)c2ccc3nc[nH]c3c2)CC1
→ u | -3% | -4% | -5
C=CCS/C(N)=N\N=C\c1cc(Br)cc([N+](=O)[O-])c1O
→ 3.3% | 14% | -11% | -4
CCN1CCN(c2ccc(S(=O)(=O)N3CCOCC3)cc2NC(=O)c2ccc(C)cc2C)CC1
→ -5.2% | -3% | x | x
Cc1ccc(OCCN2CCN(C(=O)CCC(=O)Nc3nnc(C(C)C)s3)CC2)cc1
→ 1.0% | -1% | 17% | -3
CCOc1ccccc1C1CC(c2cccc(NS(C)(=O)=O)c2)=NN1C(=O)c1ccccc1 (stereo unspecified)
→ u | 16% | -10% | -25

Entries of single compounds from above. Order of values: Rango complex inh	Rango release inh	miR-21 reporter	GLA inh pH 4.5
Entry for `COc1ccccc1N1CCN(C(=O)c2ccc3nc[nH]c3c2)CC1` → u	-3%	-4%	-5
Entry for `COc1ccc(Nc2nc(N)nc(CN3CCOCC3)n2)cc1` → 0.4%	20%	-13%	4

Other compounds follow:
Every second line gives: Rango complex inh | Rango release inh | miR-21 reporter | GLA inh pH 4.5
CN(c1ccc(OCC(=O)OCC(=O)Nc2c(F)c(F)c(F)c(F)c2F)cc1)S(=O)(=O)c1ccc(F)cc1
→ u | u | -2% | -5
COC(=O)c1c(C)[nH]c(C(=O)C(C)OC(=O)C2=NNC(=O)CC2)c1C (stereo unspecified)
→ -4.5% | 2% | -4% | 10
COc1ccc(NC(=O)CN2C(=O)NC(C)(C3CC3)C2=O)cc1S(=O)(=O)N1CCCCC1 (stereo unspecified)
→ 2.6% | -11% | x | x
O=C(NC1CCCCC1)C(c1ccc(O)c(O)c1)N(C(=O)Cn1nnc2ccccc21)c1cccc(O)c1 (stereo unspecified)
→ -2.9% | 2% | -4% | -2
Cc1cc(Cl)ccc1Oc1ccccc1C(=O)CC#N
→ u | 0% | 5% | -16
COc1ccccc1C1=NOC(CN2C(=O)c3ccccc3S2(=O)=O)C1 (stereo unspecified)
→ -0.6% | 0% | -49% | -1
c1ccc2c(C3=NNC(=NC4CC4)SC3)c[nH]c2c1
→ -5.9% | -12% | -3% | u
CS(=O)(=O)n1nc(-c2cccnc2)nc1NCc1ccccc1
→ 3.7% | 0% | -10% | -13
Cc1cc(=O)c(C(=O)O)c(C)n1-c1ccccc1
→ 4.4% | -8% | x | x
COc1ccccc1NS(=O)(=O)c1cc(NC(=O)Nc2cccc(C)c2)ccc1N1CCCCC1
→ -3.4% | 0% | 23% | -1
CC(C(=O)N1CCOCC1)N1C(=O)c2ccccc2C1=O (stereo unspecified)
→ -1.6% | 33% | -1% | -17
CN1CCN(c2ccc(S(=O)(=O)N3CCCCC3)cc2NC(=O)COc2ccc(F)cc2)CC1
→ 0.6% | 12% | x | x
CCN1C(=O)CSc2ccc(C(=O)NCc3ccco3)cc21
→ 1.3% | -3% | -4% | 3
[O-]/C(=C(\C(=S)NCCN1CCOCC1)[n+]1ccccc1)c1ccc(Cl)s1
→ -2.1% | -17% | -2% | 0
Cc1ccc(NC2=CC(=O)CC(c3ccc(Cl)cc3)C2)cc1 (stereo unspecified)
→ -1.0% | 0% | -10% | -3
CCOc1ccc(N(CC(=O)N/N=C/c2cc(Br)c(C)o2)S(C)(=O)=O)cc1
→ -0.2% | 11% | -1% | -22
CC(C)CCN1C(Nc2ccccc2)=NC[C@@H]1CC(C)C
→ -3.3% | -1% | 2% | x
O=S(=O)(Nc1ccc(Br)cc1)c1cccc2cccnc12
→ 0.6% | 17% | -5% | x
O=C(CN1CCN(c2ccc(F)cc2)CC1)N1CCOCC1
→ 0.2% | -16% | -1% | -5
S=c1[nH]nc(C2(c3ccccc3)CCCC2)o1
→ -0.4% | 2% | 2% | -1

In the list so far, these have a furan ring, fused or not.
Every second line gives: Rango complex inh | Rango release inh | miR-21 reporter | GLA inh pH 4.5
COc1ccc2oc(C(=O)OCC(=O)N3CCN(S(=O)(=O)c4ccc(C)cc4)CC3)c(C)c2c1
→ u | -9% | 0% | x
O=C(/C=C/c1ccco1)Nc1ccc2nc3n(c(=O)c2c1)CCCC3
→ 3.6% | 18% | -35% | -1
O=C(Nc1nc2c(F)cc(F)cc2s1)c1ccc([N+](=O)[O-])o1
→ -3.2% | -12% | -15% | x
CCCN1CCN(C(=O)c2ccc(-c3ccc([N+](=O)[O-])cc3)o2)CC1
→ -0.4% | 0% | x | x
Cc1cc(C(=O)N2CCN(c3ccc(C(F)(F)F)cn3)CC2)c(C)o1
→ 1.1% | -4% | 7% | -14
N#CC1=C(S)N(c2ccccc2)C(c2ccc(-c3cc(Cl)ccc3Cl)o2)NC1=O (stereo unspecified)
→ -3.6% | -12% | -1% | 0
Cc1ccccc1Nc1nc(N)nc(COC(=O)[C@@H](NC(=O)c2ccco2)C(C)C)n1
→ -0.5% | 21% | x | x
CCN1C(=O)CSc2ccc(C(=O)NCc3ccco3)cc21
→ 1.3% | -3% | -4% | 3
CCOc1ccc(N(CC(=O)N/N=C/c2cc(Br)c(C)o2)S(C)(=O)=O)cc1
→ -0.2% | 11% | -1% | -22
